KCNQ2 pot: potentiators of rat KCNQ2 potassium channel; O88943; CHO-K1 KCNQ2, FluxOR thallium flux fluorescence; hits give high values; B-score at 10 µM; 0.54% of 310,000 active;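 active = fluorescence ratio B-score at least 3 SD of library B-scores, with initial fluorescence B-score within 3 SD, cut at about 5.3 in these data; same plate scores as AID 2156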;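 also: B-score of peak minus minimum over baseline fluorescence ratio after K+ and Tl+ stimulus; positive B-score means potentiation of KCNQ2 with more thallium influx and brighter signal; only the inactives scoring about 0 or higher are listed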
Target sequence (O88943 whole entry, looked up): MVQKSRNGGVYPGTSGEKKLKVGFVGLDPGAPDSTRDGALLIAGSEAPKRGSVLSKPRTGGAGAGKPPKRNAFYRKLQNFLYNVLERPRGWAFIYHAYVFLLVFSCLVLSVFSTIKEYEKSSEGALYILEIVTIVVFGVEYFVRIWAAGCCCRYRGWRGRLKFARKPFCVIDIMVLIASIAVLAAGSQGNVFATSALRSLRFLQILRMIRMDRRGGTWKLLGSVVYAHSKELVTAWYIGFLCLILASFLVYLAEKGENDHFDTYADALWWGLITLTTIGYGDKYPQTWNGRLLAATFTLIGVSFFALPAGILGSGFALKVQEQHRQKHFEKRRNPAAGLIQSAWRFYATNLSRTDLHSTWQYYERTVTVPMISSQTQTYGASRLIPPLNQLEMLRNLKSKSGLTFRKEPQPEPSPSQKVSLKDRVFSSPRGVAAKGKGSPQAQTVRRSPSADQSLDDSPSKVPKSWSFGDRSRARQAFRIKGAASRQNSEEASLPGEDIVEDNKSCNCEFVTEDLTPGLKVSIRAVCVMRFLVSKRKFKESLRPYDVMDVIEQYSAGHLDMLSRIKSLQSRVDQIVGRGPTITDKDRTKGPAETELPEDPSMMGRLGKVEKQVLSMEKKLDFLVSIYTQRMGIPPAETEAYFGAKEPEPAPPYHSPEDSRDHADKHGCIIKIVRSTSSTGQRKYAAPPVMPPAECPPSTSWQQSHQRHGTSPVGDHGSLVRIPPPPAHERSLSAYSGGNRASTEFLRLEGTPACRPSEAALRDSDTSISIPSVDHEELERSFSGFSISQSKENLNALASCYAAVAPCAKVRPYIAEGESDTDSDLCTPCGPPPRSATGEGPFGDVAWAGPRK
KCNQ2 pot baseline: also measured in KCNQ2 pot; calls as there; B-score; compound at 10 µM; measured here: initial fluorescence intensity artifact check;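 brightness before thallium and not channel activity; 0 = typical well and far values either way flag optical interference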
Numbers without * were called inactive. These rows are one share of the data; rates above refer to the full screens.

Cc1cc(C)cc(-n2ccnc2SCC(=O)O)c1 was read as KCNQ2 pot 1.6 and KCNQ2 pot baseline -0.71.
CC1CCCCC1NC(=O)COC(=O)c1ccccc1NC(=O)c1ccco1 (configuration not stated) was read as KCNQ2 pot 0.01 and KCNQ2 pot baseline 1.6.
Screening O=C(CSc1nnc(CNc2ccc(F)cc2)n1Cc1ccco1)N1CCCC1 returned KCNQ2 pot 0.54 and KCNQ2 pot baseline -1.7.
`O=C(c1ccco1)N1CCN(C(=S)Nc2ccccc2C(F)(F)F)CC1` gave KCNQ2 pot 1.2 and KCNQ2 pot baseline -1.6.
`CC(C)Sc1nc2c(c(=O)[nH]c(=O)n2C)n1CC(O)COc1ccccc1` (configuration not stated) gave KCNQ2 pot 0.22 and KCNQ2 pot baseline 1.6.
Screening CCCCCc1nnc(N)s1 returned KCNQ2 pot 0.04 and KCNQ2 pot baseline -0.01.
For COc1ccc(CNC(=O)Cn2c(=O)n(CCC(=O)N3CCCCC3)c(=O)c3sccc32)cc1 the results were KCNQ2 pot 0.74 and KCNQ2 pot baseline -0.07.
For COCCNc1nc2c(c(=O)n(C)c(=O)n2C)n1Cc1cccc(C(F)(F)F)c1 the results were KCNQ2 pot 0.66 and KCNQ2 pot baseline -1.5.
For OCc1nc2ccccc2n1CC(O)COc1ccccc1 (configuration not stated) the results were KCNQ2 pot 0.06 and KCNQ2 pot baseline -1.8.
For CCN(CC)C(=O)CSc1nc(N)c(C#N)c(-c2cccs2)c1C#N the results were KCNQ2 pot 0.41 and KCNQ2 pot baseline -0.11.
COc1ccc(-c2cc(-c3cccnc3)c(C#N)c(N)n2)cc1 was read as KCNQ2 pot 0.35 and KCNQ2 pot baseline 0.9.
Screening O=S(=O)(NC1=NCCCCC1)c1ccc(Cl)cc1 returned KCNQ2 pot 2.1 and KCNQ2 pot baseline -2.3.
`c1coc(-c2nc3c([nH]2)CCc2nonc2-3)c1` gave KCNQ2 pot 1.2 and KCNQ2 pot baseline 1.1.
`CN(Cc1cccc(Cl)c1)C(=O)C1CCN(C(=O)Nc2ccccc2)CC1` gave KCNQ2 pot 2.8 and KCNQ2 pot baseline 0.02.
CCCCNC(=O)CCC(=O)N1CCN(C(c2ccccc2)c2ccccc2)CC1 was read as KCNQ2 pot 0.17 and KCNQ2 pot baseline 0.2.
Screening COc1ccc(/C=C/C(=O)NCCc2ccc(OC)c(OC)c2)cc1 returned KCNQ2 pot 0.22 and KCNQ2 pot baseline -0.37.
CC(=O)c1c(COC(=O)c2ccccc2)nc2ccccc2[n+]1[O-] was read as KCNQ2 pot 1.3 and KCNQ2 pot baseline 1.6.
For Clc1ccc(CNC23CN4CN(CN(C4)C2)C3)c(Cl)c1 the results were KCNQ2 pot 0.1 and KCNQ2 pot baseline 3.
Screening O=C(Nc1cccnc1)c1ccc(Oc2ccccc2)cc1 returned KCNQ2 pot 18* and KCNQ2 pot baseline 0*.
Cc1nc2ccccc2c2c1C(=O)N(C(C)C)C2=O was read as KCNQ2 pot 0.95 and KCNQ2 pot baseline -1.4.
COc1ccc(-c2noc(CCC(=O)N3CCC(C)CC3)n2)cc1 was read as KCNQ2 pot 0.11 and KCNQ2 pot baseline 0.01.
`O=C(NC(=S)N1CCN(C2CCCCC2)CC1)c1ccccc1` gave KCNQ2 pot 0.21 and KCNQ2 pot baseline -1.3.
Clc1ccc2oc(-c3ccccn3)nc2c1 was read as KCNQ2 pot 0.64 and KCNQ2 pot baseline -0.78.
`CCNC(=O)CC1C(=O)N(c2ccc(F)cc2)C(=O)N1CCc1sccc1C` (configuration not stated) gave KCNQ2 pot 0.25 and KCNQ2 pot baseline 0.1.
For COC(=O)CN1C(=O)N/C(=C/c2cc(Cl)c(OC)c(OC)c2)C1=O the results were KCNQ2 pot 2 and KCNQ2 pot baseline 0.79.
For COc1cc2cc(C(=O)O)[nH]c2c(OC)c1OC the results were KCNQ2 pot 0.6 and KCNQ2 pot baseline 0.42.
CCN1CCN(C(=O)/C=C/c2ccc(C)cc2)CC1 was read as KCNQ2 pot 0.21 and KCNQ2 pot baseline 0.43.
For COc1cc2[nH]c(C(=O)N3CCN(C)CC3)cc2c(OC)c1OC the results were KCNQ2 pot 0.65 and KCNQ2 pot baseline -0.45.
For C#CCNC(=O)C1=C[C@H](c2ccc(Br)cc2)C[C@H](OCc2ccc(CO)cc2)O1 the results were KCNQ2 pot 0.26 and KCNQ2 pot baseline 0.1.
For CC(/C=N/NC(=O)CN1CCN(Cc2ccc(Cl)cc2)CC1)=C\c1ccco1 the results were KCNQ2 pot 1.3 and KCNQ2 pot baseline -0.33.
Screening CC1CCCCN1S(=O)(=O)c1ccc([N+](=O)[O-])cc1 (configuration not stated) returned KCNQ2 pot 0.24 and KCNQ2 pot baseline 0.86.
COCCn1nnnc1CN1CCC(C)CC1 was read as KCNQ2 pot 0.79 and KCNQ2 pot baseline 0.58.
O=C(CCc1ccccc1)Nc1sc2c(c1C(=O)O)CCCC2 was read as KCNQ2 pot 0.48 and KCNQ2 pot baseline 0.08.
`CC1CC(OCC(O)CN2CCOCC2)CC(C)(C)C1` (configuration not stated) gave KCNQ2 pot 0.16 and KCNQ2 pot baseline 0.58.
Screening COCCn1c(SCc2ccc(C)cc2)nc2c1c(=O)[nH]c(=O)n2C returned KCNQ2 pot 1.8 and KCNQ2 pot baseline -2.1.
`CCN(CC)CCSc1nc(O)c(Cc2ccccc2)c(=O)n1-c1ccccc1` gave KCNQ2 pot 0.34 and KCNQ2 pot baseline 0.62.
Cc1cccc(C)c1NCC(=O)N1CCN(Cc2ccccc2)CC1 was read as KCNQ2 pot 0.94 and KCNQ2 pot baseline 0.03.
Screening COc1cc(C(=O)N(Cc2cccc(Cl)c2)C2CCS(=O)(=O)C2)cc(OC)c1OC (configuration not stated) returned KCNQ2 pot 0.07 and KCNQ2 pot baseline 0.97.
For COc1ccc(CCNC(=O)CCC(=O)N2CC(C)Oc3ccccc32)cc1OC (configuration not stated) the results were KCNQ2 pot 1.4 and KCNQ2 pot baseline 1.6.
CCCC12CN3CCN(CC(C3)/C1=N\NC(=O)c1ccccc1Cl)C2 was read as KCNQ2 pot 1.8 and KCNQ2 pot baseline -1.1.
For CCn1cc(C(=O)NC2CCCCC2)c(=O)c2cc(S(=O)(=O)N(C)C)ccc21 the results were KCNQ2 pot 0.7 and KCNQ2 pot baseline -0.45.
For CC(C)C(NC(=O)c1ccco1)C(=O)NC1CCCCCC1 (configuration not stated) the results were KCNQ2 pot 2.1 and KCNQ2 pot baseline -1.4.
Cc1cccc(NC(=S)N(CCN(C)C)C(C)c2ccccn2)c1 (configuration not stated) was read as KCNQ2 pot 0.84 and KCNQ2 pot baseline -0.45.
Screening CCc1ccccc1NS(=O)(=O)c1ccc2c(c1)NC(=O)CC(=O)N2 returned KCNQ2 pot 0.04 and KCNQ2 pot baseline 1.2.
For COc1ccc(NC(=O)CN(Cc2ccccc2)S(C)(=O)=O)cc1OC the results were KCNQ2 pot 0.03 and KCNQ2 pot baseline 0.92.
Screening CN(C)CCc1c[nH]c2ccc(Cn3cncn3)cc12 returned KCNQ2 pot 0.54 and KCNQ2 pot baseline 0.28.
Screening Cc1cc(F)ccc1NC(=O)C1CCN(S(=O)(=O)c2ccc3c(c2)CCCC(=O)N3)CC1 returned KCNQ2 pot 0.16 and KCNQ2 pot baseline 0.38.
`O=C(c1ccc(S(=O)(=O)Nc2ccccc2)cc1)N1CCCCCCC1` gave KCNQ2 pot 0.05 and KCNQ2 pot baseline 1.6.
Screening COc1ccc(Cl)cc1NC(=O)CN(C)CC(=O)Nc1cc(OC)c(OC)c(OC)c1 returned KCNQ2 pot 0.1 and KCNQ2 pot baseline -0.35.
Cc1ccc(S(=O)(=O)NN2C(=O)/C(=C/c3ccccn3)SC2=S)cc1 was read as KCNQ2 pot 0.63 and KCNQ2 pot baseline 1.9.
For Cc1c(Nc2cc(N3CCCCCC3)c3nonc3c2[N+](=O)[O-])c(=O)n(-c2ccccc2)n1C the results were KCNQ2 pot 0.24 and KCNQ2 pot baseline -0.19.
CCCC[n+]1ccc(-c2nc3ccc([N+](=O)[O-])cc3[nH]2)cc1 was read as KCNQ2 pot 1.7 and KCNQ2 pot baseline 1.6.
Screening CCOc1ccc(CCNC(=O)Cc2ccc(NC3=NC4CS(=O)(=O)CC4S3)cc2)cc1 (configuration not stated) returned KCNQ2 pot 1.2 and KCNQ2 pot baseline -0.01.
Screening CC(=O)c1ccc(OCC(C)C)c(Cc2c(O)nc(N)[nH]c2=O)c1 returned KCNQ2 pot 0.48 and KCNQ2 pot baseline -0.48.
For O=C(N/N=C/c1ccc(O)cc1O)c1ccc(CN2C(=O)c3cccc4cccc2c34)cc1 the results were KCNQ2 pot 0.27 and KCNQ2 pot baseline -0.51.
CSc1nc(N)nc(N(C)C)n1 was read as KCNQ2 pot 0.41 and KCNQ2 pot baseline -1.2.
Screening Cc1ccc2nc(N3CCN(C(=O)c4ccc(F)cc4)CC3)c(C#N)cc2c1 returned KCNQ2 pot 0.33 and KCNQ2 pot baseline -1.6.
`CC(=O)NC(Cc1cc(C)ccc1C)C(=O)N1CCN(C(=O)c2ccc([N+](=O)[O-])cc2)CC1` (configuration not stated) gave KCNQ2 pot 0.16 and KCNQ2 pot baseline -0.5.
CCOc1cccc2cc(C(N)=O)c(=NCc3ccccc3)oc12 was read as KCNQ2 pot 0.23 and KCNQ2 pot baseline 2.7.
For NC(=O)CN1C(=O)C2CCCCN2C(=O)c2ccccc21 (configuration not stated) the results were KCNQ2 pot 1 and KCNQ2 pot baseline 0.58.
C=CCn1c(/N=C/c2ccc(OC)cc2)nc2ccccc21 was read as KCNQ2 pot 1.4 and KCNQ2 pot baseline 0.61.
Screening CC(C)NCc1cccc([N+](=O)[O-])c1 returned KCNQ2 pot 2.6 and KCNQ2 pot baseline 0.81.
For COc1ccc(OCC(=O)Nc2ccc(OC)c(S(=O)(=O)N3CCCCC3)c2)cc1 the results were KCNQ2 pot 1.3 and KCNQ2 pot baseline -1.7.
COC(=O)C1=C[C@@H](C(=O)OC)[C@@H]2C3=C(C(=O)C2(C)C)[C@H](C)n2c(=O)n(-c4ccccc4)c(=O)n2[C@@H]3C1 was read as KCNQ2 pot 0.03 and KCNQ2 pot baseline -0.66.
For CN(C)S(=O)(=O)c1ccc(NC(=O)CSc2n[nH]c(=O)n2C2CC2)cc1 the results were KCNQ2 pot 1 and KCNQ2 pot baseline -0.94.
For CN1C(=O)C(C(=O)Nc2ccccc2F)c2ccccc21 (configuration not stated) the results were KCNQ2 pot 0.09 and KCNQ2 pot baseline 1.3.
Screening O=C(CN1C(=O)NC2(CCCC2)C1=O)N1CCN(c2ccccc2O)CC1 returned KCNQ2 pot 1.4 and KCNQ2 pot baseline -2.1.
For CCOc1ccc(CCNS(=O)(=O)c2c(C)nc3scc(C)n3c2=O)cc1OCC the results were KCNQ2 pot 0.16 and KCNQ2 pot baseline -2.6.
Screening Cc1ccc(-c2nn(CCC#N)cc2C=C(C#N)C#N)cc1 returned KCNQ2 pot 1.7 and KCNQ2 pot baseline 0.14.
CCOC(=O)CSc1nc2ccccc2c(=O)n1-c1ccc(C(=O)NCCOC)cc1 was read as KCNQ2 pot 0.25 and KCNQ2 pot baseline 0.17.
Cc1c(CCC(=O)N2CCC(C(=O)O)CC2)c(=O)oc2cc3oc4c(c3cc12)CCCC4 was read as KCNQ2 pot 0.4 and KCNQ2 pot baseline 0.06.
For COc1ccccc1N1CCN(c2cc(=O)n(-c3ccc(Cl)cc3)c(=O)[nH]2)CC1 the results were KCNQ2 pot 1.1 and KCNQ2 pot baseline 0.32.
`Cc1ccc(/C=C/C(=O)N2CCN(c3ncccn3)CC2)o1` gave KCNQ2 pot 8.9* and KCNQ2 pot baseline 0.95*.
Cc1nc2ccc(NC(=O)N3CCCCC3)cc2s1 was read as KCNQ2 pot 1.2 and KCNQ2 pot baseline -1.1.
For CCOc1cc(/C=N/n2cnnc2)c(Br)cc1O the results were KCNQ2 pot 1.2 and KCNQ2 pot baseline -0.87.
Screening O=C(c1ccc(COc2ccc(F)cc2)o1)n1cc(Br)cn1 returned KCNQ2 pot 0.38 and KCNQ2 pot baseline -2.8.
For CCOc1ccccc1NC(=O)c1ccccc1NC(=O)c1ccco1 the results were KCNQ2 pot 0.03 and KCNQ2 pot baseline -0.51.
For COc1ccc(CC(=O)c2ccc(OC)c(OC)c2)cc1 the results were KCNQ2 pot 0.37 and KCNQ2 pot baseline -0.7.

Filtered by structure: the entries above containing a furan ring, fused or not.
CC1CCCCC1NC(=O)COC(=O)c1ccccc1NC(=O)c1ccco1 (configuration not stated) was read as KCNQ2 pot 0.01 and KCNQ2 pot baseline 1.6.
Screening O=C(CSc1nnc(CNc2ccc(F)cc2)n1Cc1ccco1)N1CCCC1 returned KCNQ2 pot 0.54 and KCNQ2 pot baseline -1.7.
`O=C(c1ccco1)N1CCN(C(=S)Nc2ccccc2C(F)(F)F)CC1` gave KCNQ2 pot 1.2 and KCNQ2 pot baseline -1.6.
`c1coc(-c2nc3c([nH]2)CCc2nonc2-3)c1` gave KCNQ2 pot 1.2 and KCNQ2 pot baseline 1.1.
For CC(/C=N/NC(=O)CN1CCN(Cc2ccc(Cl)cc2)CC1)=C\c1ccco1 the results were KCNQ2 pot 1.3 and KCNQ2 pot baseline -0.33.
For CC(C)C(NC(=O)c1ccco1)C(=O)NC1CCCCCC1 (configuration not stated) the results were KCNQ2 pot 2.1 and KCNQ2 pot baseline -1.4.
Cc1c(CCC(=O)N2CCC(C(=O)O)CC2)c(=O)oc2cc3oc4c(c3cc12)CCCC4 was read as KCNQ2 pot 0.4 and KCNQ2 pot baseline 0.06.
`Cc1ccc(/C=C/C(=O)N2CCN(c3ncccn3)CC2)o1` gave KCNQ2 pot 8.9* and KCNQ2 pot baseline 0.95*.
Screening O=C(c1ccc(COc2ccc(F)cc2)o1)n1cc(Br)cn1 returned KCNQ2 pot 0.38 and KCNQ2 pot baseline -2.8.
For CCOc1ccccc1NC(=O)c1ccccc1NC(=O)c1ccco1 the results were KCNQ2 pot 0.03 and KCNQ2 pot baseline -0.51.

Screening results deposited in PubChem by Johns Hopkins Ion Channel Center.
